Source: PubChem BioAssay (National Center for Advancing Translational Sciences (NCATS))
2A StopGo = lowers the luciferase signal of an FMDV 2A StopGo reporter; human cells with a luciferase reporter of 2A StopGo recoding; control for the full effect not named in the record; Potency, µM (series often up to 57.9 µM), inactives show at the top dose signal change, negative = less light; actives 1.2% (n = 410,000); active = well fitted falling curve with a large enough effect; inconclusive = small, poorly fitted or top-dose-only effect; inactive = no such curve, though single readings can be large or run the other way; tested in HEK293T cells; further: on the % scale 0 is the no-effect control and ±100 the full control effect; nearly all actives have a fitted effect of over 45% in size; luciferase light after 4 h
RE007 growth inh = less growth of the S. pombe RE007 Vpr strain | Potency, µM (highest dose often 92.2 µM), inactives show at the highest dose activity change, negative = less growth | actives 0.21% (n = 360,000) | S. pombe RE007 Vpr strain, BacTiter-Glo ATP luminescence, 24 h; control for the full effect not named in the record | AID 651644; active = well fitted falling curve with a large enough effect; inconclusive = small, poorly fitted or top-dose-only effect; inactive = no such curve, though single readings can be large or run the other way;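 further: on the % scale 0 is the no-effect control and ±100 the full control effect; nearly all actives have a fitted effect of over 50% in size; the assay follows cell death caused by Vpr and the record does not say whether a fall means rescue or toxicity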
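Fission yeast RE007 carrying one integrated HIV-1 vpr copy, seeded at OD 0.01 in PMG+AL medium with 23 nL pinned compound. Grown 24 h at 30 degrees; viability read by BacTiter-Glo luminescence after 5 min.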
Cruzain inh Det = blocks cruzain activity in presence of Triton detergent; purified cruzain, Z-FR-AMC fluorescence, 0.01% Triton; Potency, µM, for the others: max response, negative = inhibition, actives largely listed as inhibitors; actives 0.43% (n = 200,000); active means well fitted curve in the direction sought with a large enough effect; inconclusive means small, poorly fitted or top-dose-only effect, or another doubt; inactive means no such curve, though single readings can be large; an effect the other way counts as inactive or inconclusive;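 further: plate controls were neutral wells for no effect and buffer without enzyme for full effect; nearly all actives have a fitted effect of over 40% in size; top concentration of the series not given in the record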
Target sequence (P25779 123-467 limits assumed): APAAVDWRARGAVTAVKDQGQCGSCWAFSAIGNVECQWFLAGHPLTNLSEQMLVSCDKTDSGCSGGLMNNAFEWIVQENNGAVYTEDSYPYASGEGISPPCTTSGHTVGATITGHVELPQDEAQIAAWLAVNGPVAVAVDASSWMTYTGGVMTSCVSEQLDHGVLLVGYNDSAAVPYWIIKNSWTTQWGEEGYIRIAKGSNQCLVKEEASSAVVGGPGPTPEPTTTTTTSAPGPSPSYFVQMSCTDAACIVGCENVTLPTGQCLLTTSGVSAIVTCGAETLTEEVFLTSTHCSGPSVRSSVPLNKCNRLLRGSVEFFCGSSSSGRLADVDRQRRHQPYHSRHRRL
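15 min RT preincubation of 1.5 nM cruzain with compound, then 2 uM Z-FR-AMC added; kinetic AMC fluorescence, 60 s delta. Triton X-100 0.01%, pH 5.5.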
MARV entry inh = Marburg virus entry inhibition; Marburg virus pseudotyped entry inhibition, cell reporter; control for the full effect not named in the record; about a third of the inactives were read at about 46 µM; Potency, µM (titrated, usually from 37.8 µM), for the others: at the top dose activity change, negative = inhibition, actives largely listed as inhibitors; actives 1.8% (n = 300,000); AID 540276; active = well fitted inhibition curve with a large enough effect; inconclusive = small, poorly fitted or top-dose-only effect, or effect the other way; inactive = flat fitted curve, though single readings scatter; tested in HEK293 cells; about a fifth of its hits are not listed in these tables; further: on the % scale 0 is the no-effect control and ±100 the full control effect; luciferase read-out
Cruzain inh noDet = inhibitors of Trypanosoma cruzi cruzain without detergent | AID 1476 | purified cruzain, Z-FR-AMC fluorescence, no detergent | P25779 | actives 2.3% (n = 200,000) | Potency, µM, without a hit: max response, negative = inhibition, hits mostly inhibitors; active means well fitted curve in the direction sought with a large enough effect; inconclusive means small, poorly fitted or top-dose-only effect, or another doubt; inactive means no such curve, though single readings can be large; an effect the other way counts as inactive or inconclusive;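 further: plate controls were enzyme without inhibitor for no effect and buffer without enzyme for full effect; nearly all actives have a fitted effect of over 40% in size; top concentration of the series not given in the record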
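Purified cruzain at 1.5 nM, pre-incubated 15 min with compound at room temperature in 100 mM sodium acetate pH 5.5, 5 mM DTT, 0.00005% Triton X-100. Reaction started with 2 uM Z-FR-AMC; AMC fluorescence increase over 60 s gives rate.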
NS1 function inh = blocks influenza NS1 protein function. S. cerevisiae slowed by influenza A NS1, growth recovery by OD600. Potency, µM (series often up to 46.1 µM), for inactives: top-dose activity, positive = more growth. actives 0.4% (n = 270,000). AID 2326; further: actives are rising curves; nearly all actives have a fitted effect of over 50% in size
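S. cerevisiae expressing influenza A NS1, grown in glucose, washed, then diluted 1:100 into pH 6.0 -URA galactose medium with 23 nl compound. Growth recovery read as OD600; NS1-free strain serves as control.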
SARS PLpro yeast = blocks SARS-CoV papain-like protease in a yeast assay | S. cerevisiae expressing SARS-CoV PLpro, growth rescue; control for the full effect not named in the record | Potency, µM (highest dose often 32.9 µM), without a hit: at the highest dose activity, positive = growth rescue | actives 0.19% (n = 330,000); further: 0% is about no effect; nearly all actives have a fitted effect of over 55% in size; growth read by luminescence after 48 h
Lassa entry inh = Lassa virus entry inhibition | Lassa virus pseudotype entry inhibition, cell reporter; control for the full effect not named in the record | Potency, µM (highest dose often 37.9 µM), inactives show top-dose activity change, negative = inhibition, actives largely listed as inhibitors | actives 1.2% (n = 300,000) | AID 540256; active means well fitted inhibition curve with a large enough effect; inconclusive means small, poorly fitted or top-dose-only effect, or effect the other way; inactive means flat fitted curve, though single readings scatter; tested in HEK293 cells; further: on the % scale 0 is the no-effect control and ±100 the full control effect; nearly all actives have a fitted effect of over 50% in size; luciferase read-out
Starred values were filed as active, the others as inactive; u = inconclusive; x = no result given; & = joins results of further samples; [ ] = another dose, or the depositor's remark. Unless noted, the call rests on the fitted dose curve; in most records, active means well fitted rising curve with a large enough effect; inconclusive means small, poorly fitted or top-dose-only effect; inactive means no such curve, though single readings can be large or run the other way. Potency means the concentration at half of the fitted maximal effect.

SMILES	2A StopGo	RE007 growth inh	Cruzain inh Det	MARV entry inh	Cruzain inh noDet	NS1 function inh	SARS PLpro yeast	Lassa entry inh
O=C1c2ccccc2C(O)N1Cc1cccs1 (stereo not drawn)	1%	6%	x	x	x	2%	0%	x
Cc1ccc2scc(N3CCC(C)CC3)c(=O)c2c1	-41%	x	-4.7%	x	6%	x	x	28%[46.1 µM]
COc1ccc(N(C(=O)c2cccc([N+](=O)[O-])c2)S(=O)(=O)c2cccs2)cc1	0%	26%	x	u	x	3%	-1%	-21%[46.1 µM]
CCc1cc(C(=O)OC)c(NC(=O)CN2CCN(C(=O)C3CCCO3)CC2)s1 (stereo not drawn)	-10%	40%	x	-9%	x	-19%	-5%	-11%
COc1ccc(C(CC(=O)N2CCCCC2)NC(=O)C(F)(F)F)cc1 (stereo not drawn)	1%	-5%	x	5%[46.1 µM]	x	x	-2%	-1%
Cc1c(Cl)cccc1NC(=O)CSc1ncnc2c1cnn2CCO	1%	13%	x	x	x	-3%	7%	x
CCc1c(C#N)c(SCCC(=O)Nc2ccc(C)cc2)nc2c1C(=O)CC(C)(C)C2	-9%	-5%	-1.7%	1%	0%	-36%	-2%	-4%
COc1ccc(/C=C2/C(=O)N(Cc3ccco3)C(=O)N(C(C)C)C2=O)cc1	11%	-12%	-7.2%	-7%	u	9%	4%	12%
COc1ccc(N2CCN(C(=O)c3cc(=O)c4cc(Cl)ccc4o3)CC2)cc1	-5%	0%	x	x	x	2%	-2%	x
Cc1ccc(CNC(=O)COC(=O)c2ccc(S(=O)(=O)N3CCOCC3)cc2)cc1	1%	-2%	x	-13%	x	x	6%	-11%
O=S(=O)(NCc1ccccc1)c1ccc2c(c1)OCCO2	50%[activator]	7%	5.4%	-4%	-18%	2%	-1%	0%
N#Cc1c(-c2ccccc2F)cc(-c2cccnc2)nc1N	-13%	0%	-25%	u	2%	17%	6%	u
CCn1ccnc1CNC(=O)c1ccc(OC2CCN(C(=O)COC)CC2)cc1	15%	-11%	x	x	x	2%	15%	x
COc1ccccc1N1CCN(Cc2ccc3c(c2)OCO3)CC1	-2%	0%	x	u	x	x	x	0%
Cc1cccc(Cn2ccc(N)n2)c1	-6%	8%	x	-19%[46.1 µM]	x	x	4%	u
COc1ccc(OC)c(C(=O)c2coc3ccc(O)c(CN4CCOCC4)c23)c1	2%	8%	-3.6%	-18%&-18%	2%	-1%	-1%	3%
Cc1ccc2oc3c(c(=O)c2c1)C(c1ccc([N+](=O)[O-])cc1)N(CCCN1CCOCC1)C3=O (stereo not drawn)	23%	x	-6.0%	6%[46.1 µM]	-10%	x	x	7%[46.1 µM]
CCCCn1nc(C(=O)N2CCN(S(=O)(=O)c3ccccc3)CC2)c2ccccc2c1=O	-26%	19%	x	u	x	x	0%	u
CCS(=O)(=O)N1CCN(c2ccc(S(=O)(=O)N3CCOCC3)cc2)CC1	-9%	11%	x	0%	x	x	7%	6%
OC(COc1cccc(OCC(O)CN2CCCC2)c1)CN1CCCC1 (stereo not drawn)	x	-7%	3.8%	u	-3%	0%	-2%	2%
Cc1cccc(C(=O)Nc2cccc3cccnc23)c1	65%[activator]	-29%	x	x	x	-65%	-19%	x
Cc1cccc(-n2c(=O)c3c(c4cc(C)ccc4n3C)n(CC(=O)Nc3ccccc3C(F)(F)F)c2=O)c1	-3%	x	0.4%	6%[46.1 µM]	-7%	x	x	-5%[46.1 µM]
CCOCCCNC(=O)CNC(=S)N(Cc1ccc(C)cc1)Cc1ccco1	5%	11%	x	-18%[46.1 µM]	x	x	1%	-13%
CCn1c(SCC(=O)Nc2ccc(N(C)C)cc2)nnc1-c1ccco1	1%	8%	x	10%[46.1 µM]	x	11%	-5%	0%
CCCN1CCN(CCNC(=O)Nc2ccccc2OCC)CC1	-5%	x	2.1%	-6%[46.1 µM]	-9%	x	x	-8%[46.1 µM]
CCCCCn1c(CN2CCCCC2CC)nc2c1c(=O)n(C)c(=O)n2C (stereo not drawn)	-26%	6%	-1.3%	x	-2%	-12%	0%	x
C#Cc1cccc(-n2nnc(C(C)=O)c2C)c1	-1%	17%	x	6%	x	-1%	0%	0%
COc1cccc(OC)c1OCCOc1ccccc1OC(C)C	-24%	15%	-2.2%	4%	u	-53%	-2%	-6%
CC(C)c1ccc(OCC(=O)NCc2ccccc2)cc1	17%	4%	x	u	x	-4%	-8%	9%
O=C(COc1ccccc1)Nc1c(C(=O)N2CCC(N3CCCCC3)CC2)oc2ccccc12	47%[activator]	-1%	x	x	x	-2%	3%	x
COC(=O)c1ccc(CO/N=C/c2cccc([N+](=O)[O-])c2)cc1	-15%	16%	x	1%	x	3%	2%	-1%
COCCn1nnnc1C(c1cc2cc(C)cc(C)c2[nH]c1=O)N1CCN(c2ccccc2F)CC1 (stereo not drawn)	x	0%	-6.2%	u	u	0%	0%	u
Cc1ccc(-n2c(CCC(=O)O)ccc2-c2cccs2)cc1	57%[activator]	-14%	-14%	u	-4%	10%	0%	9%[14.3 µM]
COc1cc(-c2nn3c(-c4ccco4)nnc3s2)cc(OC)c1OC	x	x	4.4%	-4%	-1%	3%	-1%	x
COc1ccc(C(=O)NCC(=O)OCCOc2ccc(Cl)cc2)cc1OC	-8%	26%	x	-1%	x	x	17%	-10%
CCOC(=O)c1cc(-c2ccc(C)o2)n[nH]1	14%	-3%	3.1%	25%	11%	-5%	-3%	21%
COc1ccc(CCNS(=O)(=O)c2ccc3[nH]c(=O)[nH]c3c2)cc1	21%	2%	x	-15%[46.1 µM]	x	x	-1%	-5%[46.1 µM]
CC(=O)NNc1cc(N2CCOCC2)nc(N2CCOCC2)n1	-11%	6%	x	x	x	8%	-3%	x
CCn1c(COc2ccc(Cl)cc2Cl)nc2ccccc21	39%[activator]	x	0.2%	x	5%	x	x	29%[46.1 µM]
O=C(Nc1ccc(Cl)cn1)c1cccc2ccccc12	0%	-23%	x	x	x	-31%	-3%	x
COc1ccc(-c2n[nH]c3c2C(c2ccccn2)N(C)C3=O)cc1 (stereo not drawn)	-6%	x	-0.2%	4%[46.1 µM]	3%	x	x	-3%[46.1 µM]
NC(=O)c1c(NC(=O)Cn2nc(C(=O)O)c3ccccc3c2=O)sc2c1CCCC2	-15%	-3%	x	x	x	-4%	0%	x
O=S(=O)(NCc1ccc(Cl)cc1Cl)c1ccc(N2CCOCC2)nc1	-1%	-13%	x	u	x	-7%	0%	-18%[46.1 µM]
CN1CCN(C(=O)CN(C2CCCCC2)S(=O)(=O)c2ccccc2)CC1	2%	0%	x	4%[46.1 µM]	x	6%	8%	x
CN1CCN(C(=O)c2cc3c(=O)n4ccccc4nc3s2)CC1	36%[activator]	-25%	x	18%[46.1 µM]	x	-1%	-2%	12%[46.1 µM]
CC(=O)c1cccc(N(C(=O)c2csnn2)C(C(=O)NC2CCCC2)c2ccccc2)c1 (stereo not drawn)	-5%	2%	x	u	x	6%	2%	-27%[46.1 µM]
COc1cccc(-c2cccc(NC(=O)C3CCN(Cc4cccc(C)n4)CC3)c2)c1	-10%	-29%	x	-4%	x	-7%	u	4%
O=C(NCc1ccccn1)c1nc(Cn2ccc([N+](=O)[O-])n2)no1	8%	-5%	x	2%[46.1 µM]	x	10%	1%	u
COc1ccc(CCNCC2CCCO2)cc1 (stereo not drawn)	0%	0%	x	x	x	-23%	-7%	x
FC(F)(F)c1nnc(-c2ccccc2)nc1Oc1ccc(Cl)cc1Cl	u	-7%	1.4%	14%	-1%	15%	6%	24%
Cc1cc(C=C(C#N)C#N)c(C)n1-c1ccccc1	22%	3%	-0.5%	16%	-1%	13%	2%	16%
c1ccc(C2N3CCCN23)cc1 (stereo not drawn)	4%	-4%	6.6%	u	-3%	5%	-3%	26%
Cc1c(Cl)c([N+](=O)[O-])nn1CC(=O)N1CCN(Cc2ccccc2)CC1	-12%	-1%	x	3%[46.1 µM]	x	-1%	0%	6%[46.1 µM]
Cn1c(=O)c2c(nc(NCc3ccco3)n2CC(O)COc2ccccc2)n(C)c1=O (stereo not drawn)	u	6%	0.0%	u	4%	-37%	5%	u
O=C(Nc1cccc(C(F)(F)F)c1)Nc1nnc(N2CCCCC2)s1	-20%	x	-4.8%	u	11%	x	x	5%[46.1 µM]
COc1ccc2c(c1OC)C(=O)N(c1ccccc1)C2=O	14%	7%	x	0%[46.1 µM]	x	-3%	0%	u
CN1CCCN(C(=O)c2ccc(Cl)s2)CC1	-7%	7%	x	0%[46.1 µM]	x	8%	4%	-8%[46.1 µM]
Cc1ccc(CC(C(=O)O)C(C)C(=O)Nc2ccc(F)cc2)cc1 (stereo not drawn)	-23%	3%	x	x	x	1%	-2%	x
O=c1c(-c2nc3ccccc3s2)cccn1Cc1ccc(Cl)c(Cl)c1	23%	8%	-8.0%	1%	u	6%	1%	4%

5 compounds already listed, sorted by count of non-hydrogen atoms, highest first:
SMILES	2A StopGo	RE007 growth inh	Cruzain inh Det	MARV entry inh	Cruzain inh noDet	NS1 function inh	SARS PLpro yeast	Lassa entry inh
COc1cccc(-c2cccc(NC(=O)C3CCN(Cc4cccc(C)n4)CC3)c2)c1	-10%	-29%	x	-4%	x	-7%	u	4%
FC(F)(F)c1nnc(-c2ccccc2)nc1Oc1ccc(Cl)cc1Cl	u	-7%	1.4%	14%	-1%	15%	6%	24%
O=C(NCc1ccccn1)c1nc(Cn2ccc([N+](=O)[O-])n2)no1	8%	-5%	x	2%[46.1 µM]	x	10%	1%	u
Cc1cc(C=C(C#N)C#N)c(C)n1-c1ccccc1	22%	3%	-0.5%	16%	-1%	13%	2%	16%
CN1CCCN(C(=O)c2ccc(Cl)s2)CC1	-7%	7%	x	0%[46.1 µM]	x	8%	4%	-8%[46.1 µM]
